# Compound activity from PubChem BioAssay.
# WNV protease inh – inhibitors of WNV NS2B-NS3 protease, primary screen, biochemical, fluorogenic substrate; z-score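 (tested at a level between 10 and 100 µM)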; actives 0.18% (n = 65,000); Genome polyprotein (West Nile virus), P06935; fluorogenic substrate Ex360/Em465; stronger effect = lower value; AID 577, 2007;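 active means z-score at -3 or under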;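 further: score is relative to mean and spread of the compound wells of a plate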
# Target sequence (P06935 1371-1501 limits assumed): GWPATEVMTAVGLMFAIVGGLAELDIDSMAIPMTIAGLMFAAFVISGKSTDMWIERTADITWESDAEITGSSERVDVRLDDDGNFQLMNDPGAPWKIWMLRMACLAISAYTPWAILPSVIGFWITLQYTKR
# Target sequence (P06935 1502-1679 limits assumed): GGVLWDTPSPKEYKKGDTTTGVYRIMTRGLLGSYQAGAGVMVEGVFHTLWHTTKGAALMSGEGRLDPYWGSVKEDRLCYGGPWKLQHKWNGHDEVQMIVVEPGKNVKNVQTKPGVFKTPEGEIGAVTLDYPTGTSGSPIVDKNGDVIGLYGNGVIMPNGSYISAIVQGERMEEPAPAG
# Hsc70 ATP site – Hsc70 inhibitors, probe displacement, primary screen, biochemical, fluorescence polarization (AID 568). Heat shock cognate 71 kDa protein (Homo sapiens). Hsc70 fluorescence polarization, probe displacement; higher % means a stronger effect; strong numbers were not always called active. displacement, % at 20 µM; hits with a dose series show IC50 in µM. 83,000 tested, under 10 active;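 active means displacement above 50% without optical interference and an IC50 on retest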;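 further: ATPase domain with a fluorescein-tagged ATP probe; 0% = vehicle and 100% = excess ADP; read after one hour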
# MT1-MMP promoter – inhibitors of MT1-MMP promoter transcription, cell-based, luciferase reporter, luminescence (AID 618). actives 0.62% (n = 87,000). MT1-MMP promoter luciferase reporter cells, luminescence. calls from a first round at 10 µM; hits with a dose series show EC50 in µM;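 active means over half of the reporter light lost at 10 µM or EC50 under 50 µM; inactive means the rest and hits that failed the dose series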;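 further: actives suppress MT1-MMP promoter-driven transcription so potencies describe inhibitors; HT1080 fibrosarcoma cells; overnight exposure; toxic or luciferase-blocking compounds were not removed from the actives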
# * = called active by the depositor; i = inactive; . = no result given. Compounds as they come, and some 0.87% of all compounds hit somewhere here.
SMILES,WNV protease inh,Hsc70 ATP site,MT1-MMP promoter
Cc1ccc(C(=O)NC2CC(C)(C)NC(C)(C)C2)c(C)c1,0.97,-1.1%,i
O=C(CNC(=O)c1cc2ccccc2o1)NCc1cccs1,-0.5,6.0%,i
COc1ccc(CCNC(=O)CCCn2c(SCC#N)nc3ccccc3c2=O)cc1OC,-0.75,-3.2%,i
O=C(Nc1ccc(F)cc1F)c1cccnc1,0.54,6.4%,i
Cc1cc(=O)c2c(C)nn(-c3ccccc3)c2[nH]1,-0.2,2.2%,i
COCCNS(=O)(=O)c1ccc(-c2ccc(C)cc2)cc1,.,7.2%,i
O=C(NCc1cccnc1)c1noc2c1CCCCC2,1.7,-1.3%,i
Cc1ccc(C(O)c2nc3ccccc3n2C(C)C)cc1 (centres undefined),-0.24,-3.3%,i
O=C(NC1CCN(C(=O)N2c3ccccc3Sc3ccccc32)CC1)c1ccco1,-0.23,-8.2%,i
CCOC(=O)c1ccc2c(c1)nc(SCC(=O)c1cc3ccccc3o1)n2CC,.,-31%,i
C=CCn1c(N)cc(=O)nc1SCC(=O)Nc1ccccc1,-1.8,-2.1%,i
CS(=O)(=O)N(CCc1ccccc1)CC(=O)N1CCN(Cc2ccc3c(c2)OCO3)CC1,-0.37,0.8%,i
Cc1ccc(S(=O)(=O)NCCCCCC(=O)NC(C)(C)CO)cc1,-0.88,10%,i
Cc1ccc(C(=O)N2c3ccccc3N(Cc3ccccc3)C(=O)C2(C)C)cc1,.,0.6%,i
CCOC(=O)c1sc(Nc2nc3c(OC)cccc3s2)nc1C,1.7,-5.6%,i
O=C1CC(c2ccc(F)c(Br)c2)C2=C(CCCC2=O)N1 (centres undefined),-0.59,1.6%,i
COc1ccc(CNC(=O)c2ccc(=O)oc2)cc1OC,0.3,-3.5%,i
Cc1cc(NC(=O)CSc2nnc(-c3ccc(Br)o3)n2Cc2ccccc2)no1,.,-1.2%,i
Clc1cccc(-c2ccc(/C=N/n3cnnc3)o2)c1Cl,.,-1.1%,i
Cc1nn(-c2ccc(F)cc2)c2sc(C(=O)N3CCCCCC3)cc12,0.39,-3.1%,i
O=c1c2sc(-c3ccccc3)cc2nc2n1CCC2,.,-1.1%,4µM*
CCCn1c(SCC(=O)Nc2nc3c(s2)CCCC3)nc2c1c(=O)n(C)c(=O)n2C,0.22,-0.8%,i
CCOC(=O)c1ccccc1Nc1cc(C)nc2nc(C)nn12,0.25,-2.7%,i
Cc1ccc(Nc2nc3c(c(=O)[nH]2)CCCC3)cc1,.,-0.6%,i
O=C(c1ccc(Cl)cc1)c1ccccc1C(=O)N1CCOCC1,2,-2.2%,i
O=C1NC(c2ccncc2)Nc2sc3c(c21)CCCC3 (centres undefined),-0.96,0.6%,i
COc1ccccc1CNC(=O)C(NC(=O)C1CCCCC1)C(C)C (centres undefined),-0.05,-1.2%,i
Cc1ccc(C)c(C(=O)CN2C(=O)c3ccccc3S2(=O)=O)c1,.,-3.4%,i
CSc1nnc2c3c4c(sc3nc(-n3nc(C)cc3C)n12)COC(C)(C)C4,-0.97,-16%,i
O=C(c1csc2ccccc12)N1CCCCCC1,-0.78,7.0%,i
c1ccc2c(c1)Cn1nnnc1-2,0.67,4.4%,i
CCOC(=O)Cc1cc(=O)n2[nH]c(C)cc2n1,1.2,-1.9%,i
O=c1c2ccccc2c2ccccc2c(=O)n1Cc1cccnc1,-1.2,3.9%,i
Oc1ccc(/C=N/Nc2nccnc2Cl)cc1,.,0.5%,i
CCSc1nc(O)c(CC)c(=O)n1C(C)CC (centres undefined),0.2,-0.9%,i
Cc1ccc(-c2cn(S(=O)(=O)c3cccc4nsnc34)nc2N)cc1,2,-1.3%,i
COc1ccc(CNc2cc(C)nc3ncnn23)c(OC)c1,0.42,-0.7%,i
CC(C)C(=O)N1CCC(CN=CC2=C(O)CC(C)(C)CC2=O)CC1,.,-0.6%,i
COc1ccc(/C=N/S(=O)(=O)c2cccs2)cc1,.,-3.6%,i
CC1CCN(C(=O)c2ccc3c(c2)OCCO3)CC1,-0.49,5.6%,i
Cc1cc(NC(=O)CSc2nc3c(c(=O)n2-c2ccccc2)SC(C)C3)no1 (centres undefined),0.18,-2.3%,i
Cc1cc(/C=C(/C#N)c2cccc(F)c2)c(C)n1-c1cccnc1,-0.99,7.9%,i
CCn1nc(NC(=O)c2ccncc2)c2cc3cccc(C)c3nc21,0.21,6.7%,i
NC(=O)CSc1nnc(-c2cccnc2)n1Cc1ccccc1,.,2.0%,i
O=C(CSc1n[nH]c(-c2ccncc2)n1)Nc1ccccn1,0.93,2.0%,i

# Reprinted at random: four records from the list
SMILES,WNV protease inh,Hsc70 ATP site,MT1-MMP promoter
Cc1ccc(-c2cn(S(=O)(=O)c3cccc4nsnc34)nc2N)cc1,2,-1.3%,i
CCSc1nc(O)c(CC)c(=O)n1C(C)CC (centres undefined),0.2,-0.9%,i
CC1CCN(C(=O)c2ccc3c(c2)OCCO3)CC1,-0.49,5.6%,i
O=C(CSc1n[nH]c(-c2ccncc2)n1)Nc1ccccn1,0.93,2.0%,i

# The list continues:
SMILES,WNV protease inh,Hsc70 ATP site,MT1-MMP promoter
Cc1ccc(S(=O)(=O)N2CCCN(S(=O)(=O)c3ccc4ccccc4c3)CC2)cc1,.,6.9%,i
Cn1c(=O)[nH]c(=O)c2c1nc(N1CCCCCC1)n2Cc1cccc2ccccc12,2.1,-2.1%,i
CCOC(=O)N1CCN(c2nc(N(c3ccccc3)c3ccccc3)nc(-n3ccnc3)n2)CC1,0.13,-4.3%,i
Cc1ccc(C(=O)Nc2ccc(O)cc2C(=O)O)cc1C,.,-1.5%,i
Cc1cc(-c2ccco2)n(CC(=O)O)n1,-2.5,2.9%,i
Cn1c(CN2CCOCC2)nc2cc(NC(=O)c3ccc(F)cc3)ccc21,-0.34,-0.9%,i
Cc1nc2ccccn2c1/C(O)=C1\C(=O)C(=O)N(CCN(C)C)C1c1cccnc1 (centres undefined),-1.3,25%,i
CCN1C(=O)c2cccc3c(NC(=O)c4ccc(S(=O)(=O)N(C)C)cc4)ccc1c23,-1.1,-5.9%,i
Cc1ncc(S(=O)(=O)c2ccccc2)c(-c2ccccc2)n1,.,5.9%,i
CCOC(=O)/C(N=O)=C(\O)C1CCN(C(=O)OCC)CC1,0.64,3.6%,i
CCOc1ccc(CN(C(=O)c2oc3cc(C)ccc3c2C)C2CCS(=O)(=O)C2)cc1 (centres undefined),.,1.6%,i
C=CCn1c(NCc2c[nH]c3ccccc23)nc2ccccc21,.,-2.5%,i
CCOC(=O)c1[nH]c(C)c(C(=O)NCc2ccc(Cl)cc2)c1C,-0.46,-10%,i
Nc1c(C(O)(C(F)(F)F)C(F)(F)F)cc(C(O)(C(F)(F)F)C(F)(F)F)c2ccccc12,.,-1.3%,i
O=Cc1cn(-c2ccccc2)nc1-c1cc2c(ccc3ccccc32)oc1=O,.,-20%,i

# The list goes on; it opens with the 2 that closed the last part.
SMILES,WNV protease inh,Hsc70 ATP site,MT1-MMP promoter
Nc1c(C(O)(C(F)(F)F)C(F)(F)F)cc(C(O)(C(F)(F)F)C(F)(F)F)c2ccccc12,.,-1.3%,i
O=Cc1cn(-c2ccccc2)nc1-c1cc2c(ccc3ccccc32)oc1=O,.,-20%,i
Cn1cc(S(=O)(=O)Cc2ccc(F)cc2)c2ccccc21,-1.7,0.0%,i
O=C(COc1ccccc1)Nc1ccc(S(=O)(=O)N2CCOCC2)cc1,-1.3,-2.2%,i
COc1cc(C(=O)NCCc2ccc3c(c2)OCCO3)ccc1OCC(=O)N1CCOCC1,-0.48,0.1%,i
O=C(Cc1ccc(F)cc1)N(c1ccccc1)C1C=CS(=O)(=O)C1 (centres undefined),0.49,-0.2%,i
CN1CC(=O)N(C)c2ncn(Cc3ccccc3)c2C1=O,0.66,-0.7%,i
O=C1CC(c2ccco2)Cc2nc(N3CCN(Cc4ccc5c(c4)OCO5)CC3)ncc21 (centres undefined),-0.39,0.8%,i
O=C(Cn1ncc2c1-c1ccccc1OC2)Nc1ccc(S(=O)(=O)N2CCCCC2)cc1,-0.13,-0.1%,i
O=C(Cn1cnc2c(cnn2-c2ccc(F)cc2)c1=O)NCCc1ccccc1,-0.0039,2.1%,i
CCC(C)n1c(-c2cccs2)nc2nc3ccccc3nc21 (centres undefined),-0.26,-1.0%,i
C=CCOn1c(C)c(C(C)=O)c2c3nonc3ccc21,.,4.6%,i
COc1ccc(S(=O)(=O)N2CCN(C)CC2)cc1C,0.17,-4.1%,i
CCS(=O)(=O)C(=C1NCCO1)S(=O)(=O)CC,0.58,-1.3%,i
CC(C(=O)NC(=O)NCc1ccccc1)N1C(=O)c2ccccc2C1=O (centres undefined),-0.32,-2.1%,i
Cn1cc(Br)c(C(=O)N2CCN(c3cccc(Cl)c3)CC2)n1,.,-2.2%,i
COc1ccc(Cl)cc1NC(=O)C1CCCO1 (centres undefined),-0.69,0.2%,i

# Single records (already shown):
# CCS(=O)(=O)C(=C1NCCO1)S(=O)(=O)CC reads WNV protease inh = 0.58; Hsc70 ATP site = -1.3%; MT1-MMP promoter = i
# O=C(Cc1ccc(F)cc1)N(c1ccccc1)C1C=CS(=O)(=O)C1 (centres undefined) reads WNV protease inh = 0.49; Hsc70 ATP site = -0.2%; MT1-MMP promoter = i

# Following part
SMILES,WNV protease inh,Hsc70 ATP site,MT1-MMP promoter
CCS(=O)(=O)c1nc2ccccc2n1CC(=O)N1CCOCC1,0.44,4.2%,i
COc1ccc(N2CCN(CCCNS(=O)(=O)c3c(C)noc3/C=C/N(C)C)CC2)cc1,0.52,2.0%,i
O=C(CSc1nc(-c2ccco2)cc(C(F)(F)F)n1)Nc1ccc(C(=O)N2CCOCC2)cc1,.,6.0%,i
CSc1nsc(SCc2ccc(Cl)cc2)n1,.,0.7%,i
Cc1cc(OCc2ccc(C(=O)n3cccn3)o2)ccc1Cl,.,4.4%,i
COc1cccc(CN2C(=O)Nc3ccccc3C(=O)N2C(C)(C)C)c1,.,-2.5%,i
CNC(=O)Oc1ccc2c(c1)[C@]1(C)CCN(C)[C@@H]1N2C,-2.3,0.1%,i
CC1=C(C(=O)Nc2ccc(Cl)cc2)C(c2ccco2)NC(=O)N1 (centres undefined),-0.76,9.0%,i
Cc1cccc(-c2nc(CN3CCCC(C(=O)NC4CCC(C)CC4)C3)c(C)o2)c1 (centres undefined),-1.2,1.5%,i
O=C(Cn1c(CN2CCCCC2)nc2ccccc2c1=O)Nc1ccccc1,0.13,-0.7%,i
CCOc1ccc2[nH]cc(C(=O)N3CCN(CC)CC3)c(=O)c2c1,-0.49,-0.6%,i
COc1ccccc1NC(=O)c1ccc(NS(C)(=O)=O)cc1,-0.09,2.0%,i
Cc1cc(C)c(C#N)c(Nc2ccccc2)n1,.,1.1%,i
CC(=O)N1CCN(C(=O)CSc2nc3c(cnn3-c3ccccc3)c(=O)[nH]2)CC1,.,3.5%,i
CCCN(CC1CC1)C(=O)COC(=O)c1[nH]c(C)c(C(=O)OCC)c1C,.,7.2%,i
CCNC(=O)C1CC(=O)N(c2ccc(OCC)cc2)C1 (centres undefined),-1.6,2.8%,i
O=C1c2ccccc2C(=O)N1Cc1nc2ccccc2o1,-0.02,-1.9%,i
CS(=O)(=O)c1ccc2nc(N)sc2c1,-1.3,-4.0%,i
COc1ccccc1-n1c(SCC(=O)Nc2ccccc2C)nc(O)cc1=O,-0.78,4.2%,i
COc1ccc(N2CCN(c3oc(Cc4cccc5ccccc45)nc3C#N)CC2)cc1,.,0.7%,i
CCOc1ccc(Nc2nc(Cc3nnc(SCC(=O)O)o3)cs2)cc1,-0.77,-4.0%,i
C=CCn1c(C(C)NC(=O)CCC)nc2ccccc21 (centres undefined),.,-1.8%,i
Cc1ccc(-n2c3c(cc(C(=O)O)c2=O)C(=O)CC(C)(C)C3)cc1,0.31,-0.3%,i
Nc1nc(-c2ccccc2)cc(N2CCCCC2)n1,-0.0081,2.8%,i
CC(C)(C)c1ccc(C(=O)N2CCC(C(=O)NCC3CCCO3)CC2)cc1 (centres undefined),1.5,3.0%,i
CCSc1nc(O)c(C2OC(=O)c3c2ccc(OC)c3OC)c(=O)n1-c1ccccc1 (centres undefined),0.31,-3.1%,i
Cc1ccc2c(C)nc(NC3=NCN(Cc4ccccc4)CN3)nc2c1,0.31,3.1%,i
Cn1nnnc1SCC(=O)N(C1CCCCC1)C1CCCCC1,0.18,-2.1%,i
COc1ccc2c(=O)c(N3C(=O)c4ccccc4C3=O)c(C)oc2c1,0.08,4.1%,i
CSc1nnc2c(n1)OC(C1CC=C(C)CC1)Nc1ccccc1-2 (centres undefined),0.76,1.6%,i
Cc1nn(CC(=O)Nc2ccc3c(c2)nc(CCN2CCCCC2)n3C)c(=O)c2ccccc12,.,5.4%,i
CC(CCc1ccccc1)NCc1ccncc1 (centres undefined),-0.04,-0.1%,i
Cc1ccc(N(CC(=O)NC2CCCC2)C(=O)c2c(C)noc2C)cc1C,.,-3.1%,i
Cn1c(SCC(=O)NC(C)(C)C)nnc1-c1cnccn1,.,-0.3%,i
C=CCOc1ccc(C2N3CC4(CC)CN2CC(CC)(C3)C4=O)cc1 (centres undefined),-0.84,-0.1%,i
CCCN(CCC)Cc1c(C(=O)OCC)nnn1-c1nonc1N,-1.2,-0.5%,i
O=C(NCCc1ccc2c(c1)OCO2)C1CCN(S(=O)(=O)c2ccc(Cl)cc2)CC1,0.19,0.3%,i
CCOc1ccc(-c2cn(CCC#N)cn2)cc1,0.99,-25%,i
